Source: PubChem BioAssay
VDR inh: inhibitors of human vitamin D receptor. VDR-SRC2-3 peptide fluorescence polarization, 2 h. Potency, µM, for the others: max response, negative = inhibition, usual class: inhibitors. 400,000 compounds, 0.93% hits; active means well fitted inhibition curve with a large enough effect; inconclusive means small, poorly fitted or top-dose-only effect, or another doubt; inactive means no such curve, though single readings can be large or run the other way; further: series mostly up to about 120 µM
Target sequence (P11473 whole entry, looked up): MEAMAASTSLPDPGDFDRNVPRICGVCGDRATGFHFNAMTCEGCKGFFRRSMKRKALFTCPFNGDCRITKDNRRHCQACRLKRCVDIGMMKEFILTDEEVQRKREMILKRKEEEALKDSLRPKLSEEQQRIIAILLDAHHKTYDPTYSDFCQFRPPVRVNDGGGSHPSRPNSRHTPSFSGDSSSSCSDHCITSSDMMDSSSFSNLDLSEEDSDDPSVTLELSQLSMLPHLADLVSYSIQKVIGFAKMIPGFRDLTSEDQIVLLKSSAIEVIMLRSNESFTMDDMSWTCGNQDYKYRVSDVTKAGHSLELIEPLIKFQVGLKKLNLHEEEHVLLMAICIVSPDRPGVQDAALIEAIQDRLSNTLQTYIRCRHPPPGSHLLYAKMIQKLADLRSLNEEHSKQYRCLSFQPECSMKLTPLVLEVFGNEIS
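Inhibition of the VDR/SRC2-3 peptide interaction is quantified by fluorescence polarization. Compounds (23 nl, pintool) incubate with the reagents for 2 hours at ambient room temperature.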
* marks the source's active call; other numbers are inactive results; ? = inconclusive; & = joins results of further samples. On the % scale 0 is the no-effect control and ±100 the full control effect; potency means the concentration at half of the fitted maximal effect. Not all compounds are listed. The share of hits here may be higher or lower than overall.

VDR inh	SMILES
-10.1%	Cc1ccc(S(=O)(=O)N2CC(O)CC2C(=O)O)cc1 (centres undefined)
?	Cc1ccc(OCCCC(=O)N(C)CC(=O)Nc2ccccc2Cl)cc1
14.6%	O=C(COC(=O)C1CCN(S(=O)(=O)c2cc([N+](=O)[O-])ccc2Cl)CC1)Nc1ncc(Cl)cc1Cl
5.2%	COc1ccccc1-c1cccc([C@@H]2C[C@H]3[C@H](CON3C)CN2C(=O)C(C)(C)C)c1
12.6%	Cc1ccc(NC(=S)NNC(=O)c2c([N+](=O)[O-])c(C)nn2C)cc1
-26.8%	Cc1sccc1/C=N/NC(=O)c1cccc2ccccc12
-8.4%	CCCCn1c(N)c(N(CCC(C)C)C(=O)COC(=O)c2ccc3ccccc3c2)c(=O)[nH]c1=O
-5.2%	CCCN1C2=NCCN2c2cc(C)c(C)cc21
-5.7%	COc1ccccc1CNC(=O)c1ccccc1NC(=O)C1=C(C)OCCS1
-7.7%	Brc1ccc(OCc2nnc(SCC3CCCCC3)o2)cc1

A section of the results above, for reference:
VDR inh	SMILES
-10.1%	Cc1ccc(S(=O)(=O)N2CC(O)CC2C(=O)O)cc1 (centres undefined)
?	Cc1ccc(OCCCC(=O)N(C)CC(=O)Nc2ccccc2Cl)cc1
14.6%	O=C(COC(=O)C1CCN(S(=O)(=O)c2cc([N+](=O)[O-])ccc2Cl)CC1)Nc1ncc(Cl)cc1Cl
5.2%	COc1ccccc1-c1cccc([C@@H]2C[C@H]3[C@H](CON3C)CN2C(=O)C(C)(C)C)c1

Following part.
VDR inh	SMILES
11.7%	COc1cccc(CNC(=O)CCCn2c(=O)c3cccn3c3cccnc32)c1OC
14.3%	COc1ccc(NS(=O)(=O)c2cn(C)nc2C)cc1
-0.6%	O=C(/C=C/c1ccc(Cl)cc1Cl)NCCSc1ccccc1
-5.2%	COc1ccccc1N1CCN(C(=O)c2cc(-c3ccc(Cl)cc3)on2)CC1
-8.1%	COCCCNC(=S)Nc1cccc(S(=O)(=O)NC2=NCCC2)c1
-4.9%	CCCC1=Nc2cc(C(=O)NCc3ccco3)ccc2Sc2ccccc21
39.8µM*	N#C/C(=C\c1cccc([N+](=O)[O-])c1)C(=O)NCc1ccc(Cl)cc1
-18.3%	COc1ccc(NC(=O)c2cc3c(=O)n(C)c4ccccc4c3n2C)cc1OC
7.5%	COc1ccccc1-c1nc2c(c(SCC(=O)Nc3ccc(C)c(C)c3)n1)Cc1c(CO)cnc(C)c1O2
15.6%	CCCS(=O)(=O)N1CCC(N2CCN(Cc3ccc(F)cc3)C(=O)C2=O)CC1

Further structures
VDR inh	SMILES
11.3%	COc1ccc(OC)c(NC=C2C(=O)OC3(CCCCC3)OC2=O)c1
-0.4%	CCOC(=O)C1(Cc2ccccc2C)CCCN(C(=O)CCC(=O)OC)C1 (centres undefined)
12.1%	COc1ccc2cc(C)c3nnc(SCc4cccnc4)n3c2c1
-11.9%	CC(C)(C)NS(=O)(=O)c1ccc(NC(=S)NC(=O)C2CCC2)cc1
-9.7%	CCC(O)c1cc2c(cc1NC(=O)c1cccs1)OCCO2 (centres undefined)
0.5%	CCOC(=O)c1cc(S(=O)(=O)N2CCN(c3cc(C)ccc3C)CC2)[nH]n1
-7.2%	CC(C)(C)NC(=O)CCN(/N=C/c1ccccc1O)C1=NS(=O)(=O)c2ccccc21
-6.7%	CCOC(=O)C1=NNC2(c3ccccc3)C(=O)N(c3cccc(Br)c3)C(=O)C12 (centres undefined)
-18.4%	CC(C)C1C(=O)NC(=S)N1S(=O)(=O)c1ccc(C(C)(C)C)cc1 (centres undefined)
-8.1%	NS(=O)(=O)c1ccc(NC(=O)c2cc(=O)c3ccccc3o2)cc1

Further records follow.
VDR inh	SMILES
-3.8%	CC/C(O)=C(/C#N)c1nnc2n1CCCCC2
-8.6%	O=C(OCc1ccccc1)N1CCC2CC1c1cc(-c3ccc(F)cc3)ccc12 (centres undefined)
-6.9%	Cc1ccc(OCCC(=O)Nc2ccc3c(c2)OCCCO3)cc1
-22.7%	COc1ccc2[nH]c(C(=O)N/N=C/c3ccc(OC)c(O)c3)cc2c1
-5.5%	C/C=C(\C)C(=O)OC1C(OC(=O)C2(C)OC2C)c2cc3ccc(=O)oc3cc2OC1(C)C (centres undefined)
?	COc1ccc(-c2cc(C(F)(F)F)nc(S(=O)(=O)CCCC(=O)Nc3cccc(O)c3)n2)cc1OC
-7.6%	O=C(CNCc1ccco1)Nc1cc(S(=O)(=O)N2CCOCC2)ccc1N1CCOCC1
-8.1%	COc1ccc(OCc2cc(C(=O)N(C)C3CCOCC3)no2)c2ccccc12
8.7%	CN(C)CCSc1nc(-c2ccccc2)nc2c1CCCC2
0.7%	COc1ccc(C(=O)Nc2nc3ccccc3s2)cc1OC

Continued.
VDR inh	SMILES
9.1%	Cc1cccc(N2CCN(C(=O)c3csc4ccccc34)CC2C)c1 (centres undefined)
0.4%	Cc1cc(NC(=O)c2ccco2)cc(-c2nc3cc(Cl)ccc3o2)c1O
1.2%	COc1ccccc1C(=O)Nc1ccccc1OCc1cc(=O)n2c(C)csc2n1
7.8%	COc1ccccc1C1CC(=O)Nc2cc(C)c(C)cc21 (centres undefined)
24.0%	COc1ccccc1C(=O)NC(=O)COC(=O)Cc1n[nH]c(=O)c2ccccc12
9.2%	CC(=O)Nc1ccc(S(=O)(=O)Nc2cccc(-c3ccc4nncn4n3)c2)cc1
0.4%&-0.5%	Cc1nc2cc(-c3ccccc3)nn2c(C)c1CCC(=O)N1CCN(c2ccccc2)CC1
8.9%	CCOCCCNC(=O)C1CCC(CNS(=O)(=O)c2cccc3nsnc23)CC1 (centres undefined)
-8.5%	COC(=O)CN1C(=O)C(C)(C)Oc2ccc(C(=O)Nc3cccc(OC)c3)cc21
10.5%	CC1=C(c2ccc(C(C)C)cc2)S(=O)(=O)NC1=NCc1ccccc1Br

Further entries:
VDR inh	SMILES
-4.4%	O=C(c1ccco1)N1CCN(c2c([N+](=O)[O-])nn(-c3cccc(Cl)c3)[n+]2[O-])CC1
-15.4%	OC(CNCc1ccccn1)c1ccccc1 (centres undefined)
-18.4%	CN1CCN(CC(=O)NN(Cc2ccccc2)c2ccccc2)CC1
5.4%	Cn1cc(/C=C/C(=O)c2ccccc2)c2ccccc21
-13.1%	O=c1c2sccc2n(Cc2ccc(F)cc2)c(=O)n1-c1ccc(F)cc1
-2.3%	O=S(=O)(Nc1nc(SCc2ccc(Cl)cc2)n[nH]1)c1ccccc1
1.0%	Cc1ccc(CSc2nc3cccnc3n2Cc2ccc(C(=O)NCCc3cccs3)cc2)cc1
-1.5%	CCCSc1ncnc2[nH]ncc12
0.3%	CCN1CCN(S(=O)(=O)c2ccc3c(c2)OCCO3)CC1
8.0%	COCc1cc(C)n(CC(=O)NCC2CCCO2)c(=O)c1C#N (centres undefined)

More compounds
VDR inh	SMILES
4.5%	CCN1CCN(C(c2cccs2)C(C)NC(=O)c2ccccc2OC)CC1 (centres undefined)
0.1%	O=C1OC(c2cc(Br)c(O)c(Br)c2)c2ccccc21 (centres undefined)
-7.9%	O=C(Nc1ccc(N2C(=O)C3C4C=CC(C4)C3C2=O)cc1Cl)c1cccs1 (centres undefined)
-14.0%	Cc1c(Br)c(C(F)(F)F)nn1CC(=O)NCC1CCCO1 (centres undefined)
-22.9%	C=CCSC1=C(C#N)C(c2ccccc2Cl)C(C(=O)c2cccs2)C(O)(C(F)(F)F)N1 (centres undefined)
-15.7%	COc1cc(OC)c(NC(=O)c2cc(S(=O)(=O)N3CCOCC3)cn2C)cc1Cl
8.8%	Cc1cc(NC(=O)CCNS(=O)(=O)c2ccc3c(c2)CCCC(=O)N3)ccc1Br
-17.9%	CCCc1ccc(S(=O)(=O)NCc2nnc(SC)n2C)cc1
-11.3%	NC(=O)COc1ncn(-c2ccccc2)n1
-1.2%	COc1ccc(-n2ccnc2SCC(=O)Nc2cccc(OC)c2)cc1

Exported in CSV form: part of the list above
SMILES,VDR inh
COCc1cc(C)n(CC(=O)NCC2CCCO2)c(=O)c1C#N (centres undefined),8.0%
CCN1CCN(C(c2cccs2)C(C)NC(=O)c2ccccc2OC)CC1 (centres undefined),4.5%
O=C1OC(c2cc(Br)c(O)c(Br)c2)c2ccccc21 (centres undefined),0.1%

Next entries:
VDR inh	SMILES
-1.5%	CCCNC(=O)c1ccc2c(=O)c(O)c(-c3ccc(C)cc3)[nH]c2c1
-20.3%	CC(/C=N\NC(=O)Cn1c(C)nc2ccccc21)=C\c1ccccc1
4.8%	COc1ccc(C(=O)c2c(N)sc3c2CCN(C(=O)OC(C)(C)C)C3)cc1
1.7%	CCCNC(=O)C(Cc1ccc(Br)cc1)NC(=O)c1ccc(C#N)cc1 (centres undefined)
-23.1%	C#CCOCCOCCOCCNc1nc(N2CCOCC2)nc(N2CCN(C(=O)[C@H](C)n3cc(CCCN=C(N)N)nn3)CC2)n1
18.1%	COc1ccc(CNC(=O)C(=O)Nc2cccc(C)c2C)cc1
13.8%	COCCn1c(SCC(=O)Nc2ccc(Cl)cn2)nc2ccccc21
-8.8%	CC(=O)Nc1ccc(S(=O)(=O)N2CCC(C(=O)NCc3ccco3)CC2)cc1
-1.2%&-10.5%	C=CCCN(C(CC(C)C)C(=O)OC)S(=O)(=O)c1cc(Br)ccc1Br (centres undefined)
-2.6%	CCCCNC(=O)c1sc(=S)n(-c2ccccc2OC)c1N

A different layout for part of the listing above.
COc1ccc(C(=O)c2c(N)sc3c2CCN(C(=O)OC(C)(C)C)C3)cc1
  VDR inh: 4.8%
CCCNC(=O)C(Cc1ccc(Br)cc1)NC(=O)c1ccc(C#N)cc1 (centres undefined)
  VDR inh: 1.7%

VDR inh: entries above that show a hit.
VDR inh	SMILES
39.8µM*	N#C/C(=C\c1cccc([N+](=O)[O-])c1)C(=O)NCc1ccc(Cl)cc1

Further structures follow:
VDR inh	SMILES
0.9%	CCOc1ccccc1C(=O)NCC(=O)N1CCN(Cc2ccc3c(c2)OCO3)CC1
-3.2%	COc1ccc(C2CCCN2C(=O)Nc2cccc(C(C)=O)c2)cc1OC (centres undefined)
-21.9%	COC(=O)C(C(C)C)N1CC(=O)c2ccccc2S1(=O)=O (centres undefined)
1.2%	COc1cc(C)ccc1OCCSc1nnc(-c2cccs2)o1
12.2%	CN1/C(=C\C(=O)CSc2cccc[n+]2[O-])C(C)(C)c2ccccc21
-4.3%	CCOC(=O)c1ccc(NC(=O)Nc2ncccc2C)cc1
16.4%	Cn1c(SCC(=O)Nc2nccs2)nnc1C12CC3CC(CC(C3)C1)C2
0.5%	O=C(Cc1ccc(Cl)cc1)NCC(=O)N1CCCC1
-16.7%	O=C(NC(=S)Nc1ccccc1)c1ccc(-c2ccccc2)cc1
11.4%	Cc1ccc(NC(=O)CN2C(=O)CCn3nc(-c4cccn4C)cc32)cc1

Other compounds.
VDR inh	SMILES
12.4%	CCN(CC)S(=O)(=O)c1ccc(NC(=O)CSc2nnc(-c3cccc(OC)c3)n2C)cc1
11.1%	O=C(CCNS(=O)(=O)/C=C/c1ccccc1)NCCc1c[nH]c2ccccc12
-17.7%	CCCCn1c(O)c(N=NC(=O)c2ccccc2NS(=O)(=O)c2cccs2)c2ccccc21
9.2%	O=C(NCC(=O)N(CCN1CCOCC1)C(C(=O)NC1CCCC1)c1cccnc1)c1cccs1 (centres undefined)
?	Cc1cc(C)n(C(C[N+](=O)[O-])c2ccc(Cl)cc2)n1 (centres undefined)
-11.5%	CCn1c2ccccc2c2cc(CNCCCN3CCOCC3)ccc21
-8.0%	Cc1ccc(CN2CCC(Oc3cccc(C(=O)N(C)CCN(C)C)c3)CC2)cc1C
-11.6%	CC1CCCCC1NC(=O)COC(=O)c1cc(=O)[nH]c2ccccc12 (centres undefined)
-8.5%	COc1cc(C(=O)Nc2cc(C)c(OCC(=O)N3CCOCC3)c(C)c2)cc(OC)c1OC
15.8%	Cc1c(NC(=S)N/N=C/c2cccc(O)c2)c(=O)n(-c2ccccc2)n1C

Next section
VDR inh	SMILES
19.8%	COc1ccc(/C=C/C(=O)NC(=S)N2CCCCC2)cc1OC
-1.5%	NC(=S)N/N=C/c1ccc(-c2cccc([N+](=O)[O-])c2)o1
0.1%	CCC(CC)C(=O)N(CCc1ccc(OC)cc1)Cc1nc2ccccc2c(=O)[nH]1
8.6%	O=C(NCCCN1CCN(c2ccc(F)cc2)CC1)c1ccc2nc(CCc3ccccc3)oc2c1
-10.7%	CCOc1ccccc1NC(=O)CSc1nnc(CCC(=O)Nc2ccccc2F)n1C
-8.0%	O=C1Nc2c(c(=O)[nH]c(=O)n2-c2ccccc2)C(C(F)(F)F)(C(F)(F)F)N1
-16.0%	COc1cccc(CNC(=O)COC(=O)c2cc([N+](=O)[O-])ccc2N2CCCC2)c1
-14.9%	Cc1ccc(C)c(NC(=O)CN(C)C(=O)CSC(C)C(=O)Nc2cc(C)on2)c1 (centres undefined)
-14.5%	O=C(COCc1cc(-c2cccs2)on1)NC1CCCCC1
2.9%	Cc1ccc(N2CC(C(=O)N3CCC4(CC3)CC(=O)c3ccccc3O4)CC2=O)cc1 (centres undefined)

Additional results follow:
VDR inh	SMILES
-13.7%	COC(=O)C(Cc1ccc(O)cc1)NC(=O)C(C)NC(=O)c1ccc(C(C)(C)C)cc1 (centres undefined)
0.9%	CC(C)(C)OC(=O)C[C@H]1C/C=C\C[C@H](CC(=O)N[C@@H](CO)Cc2ccccc2)C(=O)N[C@H](C(C)(C)C)COC1=O
-7.8%	CCCNC(=O)c1onc(CS(=O)(=O)c2cccc(OC)c2)c1C(=O)NCCC
-2.3%	CC(Nc1[nH]c(=O)n(C)c(=O)c1N=O)c1ccccc1 (centres undefined)
-3.7%	COCCn1c(SCC(=O)Nc2ccc3c(c2)OCCO3)nc2c(c1=O)SC(C)C2 (centres undefined)
